Screening data from PubChem BioAssay.
Ecoli growth: inhibitors of Escherichia coli growth. OD600, 23 h; stronger effect = lower value. OD600 absorbance (no concentration beside the values). 330,000 compounds, 0.21% hits;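 active = OD600 absorbance below the run mean of sample wells minus 3.6 SD, in any replicate, cut at about 0.56 in these data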;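 also: stock transfer was 300 nL into about 60 µL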
RanGTP-Imp inh: inhibitors of RanGTP-importin-beta interaction, primary screen, biochemical, FRET, CFP-Ran, YFP-importin-beta, homogeneous. AID 2216. cell-free CFP-Ran/YFP-importin-beta FRET ratio. 300,000 compounds, 1.1% hits. inhibition, % (no concentration beside the values);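 active = most replicates above 15%; inconclusive = exactly half above 15%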;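 also: 0% = DMSO wells and 100% = Ran loaded with GDP instead of GTP; wells of about 40 µL received 100 nL stock; the first replicate is given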
UCH37 inh: blocks the human deubiquitinase UCH37 | 330,000 compounds, 0.33% hits | Q9Y5K5 | AID 588478 | inhibition, % (no concentration beside the values) | purified proteasome/UCH37, Ub-AMC cleavage fluorescence;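 active = mean of two replicates above 20%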;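 also: 0% = compound-free wells with enzyme and 100% = wells lacking proteasome; stock transfer was 100 nL into about 20 µL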
Target sequence (Q9Y5K5 whole entry, looked up): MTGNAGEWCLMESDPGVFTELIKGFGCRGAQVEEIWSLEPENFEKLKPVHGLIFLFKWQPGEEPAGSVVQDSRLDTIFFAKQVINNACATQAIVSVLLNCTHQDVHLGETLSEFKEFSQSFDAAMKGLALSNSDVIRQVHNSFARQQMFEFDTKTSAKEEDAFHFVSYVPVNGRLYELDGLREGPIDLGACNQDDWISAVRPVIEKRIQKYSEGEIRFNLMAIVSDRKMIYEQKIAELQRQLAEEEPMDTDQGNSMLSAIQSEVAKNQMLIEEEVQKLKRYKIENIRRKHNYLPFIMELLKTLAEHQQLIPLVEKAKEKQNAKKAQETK
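Schedule: 30 min plus 25 min, room temperature / Material: human UCH37 within purified proteasomes / Technique: AMC fluorescence intensity at 355/460 nm / Buffer or medium: pH 7.4 Tris-HCl (50 mM) with ovalbumin, ATP-MgCl2, DTT / Controls: wells without proteasome as full block, compound-free enzyme plus substrate as uninhibited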
HNF4A DNA FP: change in binding of human HNF4 alpha to DNA | 360,000 compounds, 0.3% hits | activity change, % at 10 µM | AID 1224865 | HNF4a-FITC DNA binding, fluorescence polarization, 1 h; in the data active = activity change above about 30%, passing the limit was not always enough;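 also: controls were the assay level and a saturating level of protein; the project sought stronger binding though the title names inhibitors; some compounds called inactive have numbers as strong as hits; positive values seem to mean higher polarization but the record does not say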
MLL AF4-AF9 inh: inhibitors of human MLL-AF4/AF9 interaction; inhibition, % at 10 µM; AlphaScreen, biotin-AF4 peptide binding to FLAG-AF9; P42568; AID 651704; 350,000 compounds, 0.47% hits;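 active = every replicate reaching a set inhibition limit, whatever the replicate mean, cut at about 25% in these data; inconclusive = mean inhibition reaches that limit but some replicates miss it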;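 also: 0% = plate neutral control median and 100% = total signal loss; the record names both 10 and 1 µM as test concentration; the first replicate is given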
Target sequence (P42568 whole entry, looked up): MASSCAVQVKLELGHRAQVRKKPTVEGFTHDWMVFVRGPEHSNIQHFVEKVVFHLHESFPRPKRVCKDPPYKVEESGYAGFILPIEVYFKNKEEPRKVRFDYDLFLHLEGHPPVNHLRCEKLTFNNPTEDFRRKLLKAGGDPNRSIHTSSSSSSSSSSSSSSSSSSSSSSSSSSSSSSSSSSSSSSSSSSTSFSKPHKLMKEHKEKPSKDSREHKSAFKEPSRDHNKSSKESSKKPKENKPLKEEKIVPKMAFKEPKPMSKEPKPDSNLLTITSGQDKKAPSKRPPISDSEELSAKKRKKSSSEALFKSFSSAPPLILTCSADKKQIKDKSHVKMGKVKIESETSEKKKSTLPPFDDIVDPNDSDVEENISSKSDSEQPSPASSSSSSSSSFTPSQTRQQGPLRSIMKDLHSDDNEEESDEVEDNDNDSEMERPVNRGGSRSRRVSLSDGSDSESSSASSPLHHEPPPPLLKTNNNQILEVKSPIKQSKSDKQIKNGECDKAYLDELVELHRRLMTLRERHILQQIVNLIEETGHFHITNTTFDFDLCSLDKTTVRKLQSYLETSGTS
FGF22 binding: FGF22 (human) thermal shift binding | Q9HCT0 | recombinant FGF22 thermal shift, SYPRO orange fluorescence; percent of sucrose octasulfate shift, DMSO zero | calls only at 9.99 µM | 340,000 compounds, 1.5% hits | AID 651658;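 active = melting point raised past a set limit in the mean and every replicate; inconclusive = no clear call; three in four hits are not shown here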
Target sequence (Q9HCT0 whole entry, looked up): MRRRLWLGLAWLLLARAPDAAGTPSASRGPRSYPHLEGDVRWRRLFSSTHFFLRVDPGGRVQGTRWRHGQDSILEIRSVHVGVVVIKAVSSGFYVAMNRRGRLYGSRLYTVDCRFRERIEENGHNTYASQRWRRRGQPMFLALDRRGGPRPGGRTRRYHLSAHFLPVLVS
Vif A3G: inhibitors of Vif binding to APOBEC3G peptide, primary screen, biochemical, TR-FRET, GST-Vif 1-94, biotin-A3G peptide, dose response retest (AID 1117319); TR-FRET GST-Vif / biotin-A3G peptide binding; higher % means a stronger effect; test concentration not given here; strong numbers were not always called active; inhibition, %, or IC50 in µM where a hit was titrated; 260,000 compounds, 0.57% hits;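 active = above the screen mean plus three standard deviations and confirmed in dose response; inconclusive = results disagree or hit not tested in dose response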;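 also: Vif residues 1-94 fused to GST binding biotinylated APOBEC3G peptide 110-148; 0% = full assay without inhibitor and 100% = GST in place of GST-Vif; retest series ran down from 100 µM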
* marks the source's active call; other numbers are inactive results; i = inactive; ? = inconclusive; / = not tested or not shown; & = joins results of further samples. The list is partial; the hit share may differ from the screen's.

Below each SMILES – Ecoli growth | Vif A3G | RanGTP-Imp inh | HNF4A DNA FP | MLL AF4-AF9 inh | UCH37 inh | FGF22 binding
- Cc1ccc(-c2noc(-c3ccccc3C(=O)NCC3CCCO3)n2)cc1 (stereo not given)
    0.72 | -4% | 1.3 | -1.4 | / | 1.2 | /
- COc1cc(OC)cc(C(=O)N2CC(=O)Nc3ccccc32)c1
    0.63 | / | -1.4 | -3.3 | 0.9 | 2.0 | i
- NC(=O)c1ccc(NC(=O)c2cccc(Oc3ccccc3)c2)cc1
    0.71 | -11% | -1.6 | -1.8 | 0.1 | -0.2 | i
- CNC(=O)/C(C#N)=C/c1cn(CC(=O)OC)c2ccccc12
    0.66 | 4% | 8.4 | -1.8 | -12 | 8.7 | i
- COC(=O)C(C)(C)ONC(=O)Nc1ccc([N+](=O)[O-])cc1
    0.66 | 3% | ? | -0.8 | -0.5 | 7.5 | i
- COC(=O)C1CCN(C(=O)C2CCC(=O)N(CCc3cccc(F)c3)C2)CC1 (stereo not given)
    0.71 | 10% | 7.2 | 0.4 | 0.4 | 0.6 | i
- CC(/C=C/C1(O)C(C)CC(=O)CC1(C)C)OC1OC(CO)C(O)C(O)C1O (stereo not given)
    0.72 | -5% | 0.4 | 0.3 | -1.6 | -0.3 | i
- COc1cc(/C=N/NC(=O)c2ccncc2)ccc1OC(=O)c1ccco1
    / | / | 6.7 | -1.2 | -6.3 | / | i
- Cc1ccccc1CN1C(=O)CSCC1(C)C(=O)Nc1c(C)cccc1C (stereo not given)
    / | / | / | -1.7 | 0.5 | / | i
- O=C(CSc1ccc(-c2cccc([N+](=O)[O-])c2)nn1)N1CCCCCC1
    0.7 | -3% | 7.3 | 2.4 | -2.5 | 3.5 | i
- O=C(NCc1cccs1)c1cccnc1SCCS(=O)(=O)c1ccc(C(F)(F)F)cn1
    0.68 | -3% | 2.3 | -1.3 | 4.0 | 3.3 | i
- CCOc1ccc(C(=O)N2CCN(S(=O)(=O)c3cccs3)CC2)c(OCC)c1
    0.66 | / | 3.4 | 4.8 | 0.0 | 4.1 | i
- Cc1cccc(NC(=O)CSc2nnc(Cn3nnc(-c4ccccc4)n3)n2-c2ccccc2)c1
    0.77 | -6% | 3.0 | 8.2 | / | 6.3 | /
- C[C@H](CO)N1C[C@H](C)[C@@H](CN(C)C(=O)Nc2ccccc2)Oc2c(NC(=O)c3ccncc3)cccc2C1=O
    0.72 | 3% | / | 2.3 | -0.6&-2.9 | 4.8 | i
- CCNc1nc(Oc2ccc(C(=O)OCC)cc2)nc(SC)n1
    0.66 | -9% | -3.2 | -2.6 | / | 5.0 | /
- COC(=O)c1sc2ccc(C)cc2c1C(=O)OC
    0.66 | -15% | ? | 1.5 | / | 4.8 | /
- COc1ccccc1-c1nnc(SC/C(O)=C(\C#N)c2nc3ccccc3[nH]2)n1C1CCCCC1
    / | 6% | 2.4 | 5.6 | 5.6 | / | i
- Cc1ccc(N(CC(=O)N=Nc2c(O)[nH]c3ccccc23)S(C)(=O)=O)c(C)c1
    0.71 | -11% | 2.0 | -1.9 | 1.9 | -0.4 | i
- CCOc1ccc(/C(C)=N/NC(=O)c2nnn(-c3nonc3N)c2-c2cccs2)cc1
    / | -2% | -1.8 | 7.0 | -2.6 | / | i
- O=[N+]([O-])c1cnc(Nc2ccccc2)nc1Nc1ccccc1
    0.61 | / | 3.5 | -3.0 | -1.2 | 6.6 | i
- CCC(=NN=C(CC)c1ccccc1O)c1ccccc1O
    / | -12% | / | -2.9 | 3.6 | / | i
- Cc1ccc(C2Nc3ccccc3C(=O)N2Cc2ccco2)cc1 (stereo not given)
    0.71 | 0% | 1.3 | 1.1 | / | -205 | /
- O=C(C1=NN[C@@H]2C(=O)N(c3cccc(F)c3)C(=O)[C@H]12)C(c1ccccc1)c1ccccc1
    0.68 | 8% | -3.9 | 0.1 | -4.3 | 3.1 | i
- COC(=O)C1=C(CCc2ccccc2)NC(=O)NC1c1ccc([N+](=O)[O-])cc1 (stereo not given)
    0.7 | / | -0.6 | 0.4 | -1.7 | 2.6 | i
- CCOc1ccc(NC2c3ccccc3C(=O)N2Cc2ccc3c(c2)OCO3)cc1 (stereo not given)
    0.78 | 3% | 5.3 | -3.0 | 12 | 4.1 | i
- O=C(Nc1ccc2c(c1)oc1ccccc12)c1cccnc1
    0.7 | >100µM* | 1.7 | 0.8 | / | -1.7 | /
- CCOC(=O)CSc1nc2c(sc(=S)n2-c2ccc(CC)cc2)c(=O)[nH]1
    0.66 | 4% | -1.8 | -2.8 | 2.1 | 12 | i
- Nc1c(-c2ccccc2)cnn1C1CCS(=O)(=O)C1 (stereo not given)
    0.74 | 0% | 4.7 | 1.6 | / | -3.7 | /
- Cc1ccc2c(=O)c(CN3CCCCCC3)c(C)[nH]c2c1C
    0.68 | -8% | 0.8 | 4.6 | 3.3 | 3.1 | i
- C=CCn1c(Cc2csc(N)n2)nnc1SCC(=O)Nc1ccccc1C(F)(F)F
    0.65 | 0% | 3.1 | -0.8 | / | 4.0 | /
- CC(=O)Nc1ccc2c(c1)C(=O)c1ccc(Cl)cc1-2
    0.65 | 4% | / | 4.5 | 0.3 | 2.7 | i
- Cc1ccccc1C(=O)NCc1ccncc1
    0.75 | 19% | -1.2 | -0.4 | / | -1.0 | /
- CC1Cc2ccccc2N1C(=O)/C=C/c1cccc(F)c1 (stereo not given)
    0.67 | 0% | 2.1 | -0.1 | 13 | 5.2 | i
- COc1ccc(Cl)cc1C(=O)NCc1cnn(C)c1C
    0.7 | 0% | 1.6 | -2.3 | / | 3.0 | /
- CCOC(=O)/C(C#N)=C/c1cn(CCC(=O)O)nc1-c1ccc(F)cc1
    0.71 | 26% | 2.7 | 3.5 | 1.3 | 8.6 | i
- COc1ccc(CCNS(=O)(=O)c2cccc(C)c2)cc1OC
    0.72 | 4% | -3.2 | 0.5 | / | 0.7 | /
- O=c1c2cn[nH]c2nc(SCc2ccc3c(c2)OCCO3)n1-c1ccccc1
    0.71 | 3% | 5.6 | -1.7 | / | 0.2 | /
- O=C(OCCN1C(=O)c2ccccc2C1=O)c1cc2ccccc2o1
    0.64 | 0% | 2.3 | 0.4 | 0.6 | 5.1 | i
- Cc1cccc(NS(=O)(=O)c2nnc(NC(=O)c3ccc(C)c(C)c3)s2)c1
    0.79 | / | / | -1.1 | 1.2 | 7.2 | i
- CCc1nc2c(OCC(=O)c3ccc(Cl)cc3Cl)cccn2c1N(C=O)Cc1ccccc1
    / | / | / | 8.4 | -6.4 | / | i
- COC(=O)c1ccsc1-n1cc(C#N)c(=O)n(C)c1=O
    0.7 | -11% | ? | -8.1 | -1.6 | 1.2 | i
- Clc1cccc(Cc2c(-c3ccccc3)nc3c4ccccc4ccn23)c1
    / | / | / | -2.1 | -3.5 | / | /
- Cc1ccc(NC(=S)NC2CC3CCCC(C2)N3Cc2cccs2)cc1 (stereo not given)
    0.69 | -5% | 2.8 | 1.0 | -3.3 | 0.5 | i
- Cc1cc(C(=O)CSc2nc3ccccc3c(=O)n2C)c(C)n1Cc1ccc2c(c1)OCO2
    0.75 | -113% | -0.4 | -3.4 | / | 0.3 | /
- OCCC1CN(Cc2nc(-c3ccc(F)cc3)cs2)CCN1CCc1ccccc1 (stereo not given)
    0.67 | -8% | -2.5 | 3.9 | 0.7 | 0.2 | i
- c1ccn2c(SCc3ccc4c(c3)OCCO4)nnc2c1
    0.72 | / | / | -0.7 | 6.0 | 2.8 | i
- CCCn1c(=S)[nH]c2cc(OC)c(OC)cc2c1=O
    0.66 | -13% | 1.4 | -3.4 | -9.8 | 1.7 | i
- CCn1c(SCc2cccc(C)c2)nnc1-c1ccc(C)cc1
    0.72 | -4% | 0.4 | 0.7 | / | -0.6 | /
- O=C(Nc1cc([N+](=O)[O-])ccc1N1CCOCC1)c1cccs1
    0.71 | -7% | -1.2 | 8.4 | -1.7 | 5.7 | i
- FC(F)(F)c1cc(-c2ccc(Cl)cc2)nc2ncnn12
    0.74 | 0% | 0.0 | 0.8 | / | -180 | /
- CCOC(=O)N1CCN(c2ncnc3c2[nH]c2ccc(OC)cc23)CC1
    0.68 | -2% | 1.3 | 0.2 | / | -99 | /
- COc1ccc(N(C)C(=O)Cc2c(C(=O)O)[nH]c3ccccc23)cc1
    0.72 | 6% | -1.5 | -2.9 | -1.0 | 5.9 | /
- CCOC(=O)[C@H]1[C@H]2COc3ccc(Br)cc3[C@H]2N2C(=O)CN(Cc3ccc(Cl)cc3)C(=O)[C@@]12C
    / | / | / | 3.5 | 2.9 | / | i
- CN(c1cccc(Cl)c1)S(=O)(=O)c1cccc(C(=O)NN2CCOCC2)c1
    0.68 | -6% | / | 0.1 | 1.8 | 1.5 | i
- COc1ccc(NC(=S)N(CCN2CCCCC2)Cc2ccco2)cc1
    0.68 | -4% | 0.2 | 2.6 | 8.1 | 6.0 | i
- O=C(c1ccccc1)c1cccc(NC(=O)c2ccco2)c1
    0.74 | -1% | -0.7 | -1.8 | / | 0.9 | /
- COc1cccc(NC(=O)COC(=O)c2ccc3c(c2)OCCO3)c1
    / | -3% | / | -5.0 | -1.9 | / | i
- COC(=O)CCC(=O)NNC(=O)C1CC1(c1ccccc1)c1ccccc1 (stereo not given)
    0.68 | 5% | -0.7 | -0.6 | 0.5 | 2.1 | i
- CC(C)O/C(=N/S(=O)(=O)c1ccc(Cl)cc1)c1ccccc1
    0.69 | -2% | / | 3.4 | -3.5 | 2.1 | i
- O=C1C2C(C(=O)N1/N=C/c1ccco1)C1C=CC2C12CC2 (stereo not given)
    / | 29% | 1.1 | -1.1 | 0.5 | / | i

(next part)
Below each SMILES – Ecoli growth | Vif A3G | RanGTP-Imp inh | HNF4A DNA FP | MLL AF4-AF9 inh | UCH37 inh | FGF22 binding
- COC(=O)c1ccc(C(C(=O)NC2CCCCC2)N(Cc2ccccc2)C(=O)Cc2cccs2)cc1 (stereo not given)
    0.68 | 5% | -0.8 | 0.5 | / | 4.3 | /
- O=C(c1ccco1)N1CCN(Cc2nnc(-c3cccc(Br)c3)o2)CC1
    0.67 | / | 2.9 | 2.9 | 1.9 | 3.1 | i
- Nc1ncnc2c1ncn2[C@H]1C[C@H](O)[C@@H](CO)O1
    0.76 | 2% | / | 2.4 | -0.3 | 1.5 | i
- CC(=O)c1cccc(NC(=O)c2ccc3c(=O)n4c(nc3c2)CCCCC4)c1
    0.68 | / | 0.7 | -3.4 | 0.4 | 4.3 | i
- CCOc1ccccc1C(=O)Nc1cccc2cccnc12
    0.7 | 11% | 2.2 | -1.8 | 3.4 | -2.0 | i
- CCN1C(=O)[C@H]2[C@H]3CN=C(SC)N3[C@@](CC)(C(=O)OC)[C@H]2C1=O
    0.7 | 15% | / | -0.5 | -3.7 | 1.7 | i
- Cc1ccc(SCC(=O)Nc2ccc3c(c2)C(=O)NC3=O)cc1
    0.72 | 5% | 8.4 | -0.7 | 0.6 | 1.8 | i
- CC(=O)N(c1ccccc1)c1ccccc1[N+](=O)[O-]
    / | 6% | / | 1.2 | -1.3 | / | /
- CCC1(c2ccc(OC)cc2)NC(=O)N(CC(=O)N2CCc3ccccc32)C1=O (stereo not given)
    0.73 | 0% | / | 0.5 | 1.3 | 3.0 | i
